DUX4 txn inh – DUX4-mediated transcription inhibition. 293T-iDUX4 ZSCAN4-Gaussia luciferase reporter, 24 h; stronger effect = lower value. activity change, negative = inhibition, % (concentration not given with the values). 37,000 compounds, 0.8% hits. AID 1224904;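 active = -10% or lower and over 25 points stronger than a control reporter; inconclusive = -10% or lower with a smaller gap; inactive = above -10%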;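 also: 0% = median of neutral control wells and -100% = median of positive control wells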
DUX4 txn inh difference – recorded beside DUX4 txn inh, whose call it bears; Gaussia minus Italica difference, %; measured here: selective DUX4 reporter inhibition;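 worked out from the two reporters; negative = selective loss of the DUX4 reporter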
DUX4 txn inh control – second read-out of DUX4 txn inh, no call of its own (marks repeat the call); activity change, negative = inhibition, %; measured here: Italica tet-on control reporter;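 0 = neutral control and -100 = positive control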
Numbers without * were called inactive; ? = inconclusive; / = not tested or not shown; & = joins results of further samples. A portion of the library. The share of hits here may be higher or lower than overall.

DUX4 txn inh	DUX4 txn inh difference	DUX4 txn inh control	Molecule
?	/	/	C[C@H](CO)N1C[C@H](C)[C@@H](CN(C)Cc2ccc(Oc3ccccc3)cc2)OCc2ccccc2-c2c(n(C)c3ccccc23)C1=O
10.4	7.9	2.5	CN(C)C(=O)C[C@H]1C[C@H]2c3cc(NC(=O)c4cccnc4)ccc3O[C@H]2[C@H](CO)O1
1.7	-3.0	4.7	CO[C@H]1CN(C)C(=O)c2ccc(NC(=O)C3CCOCC3)cc2OC[C@H](C)N(Cc2cccnc2)C[C@@H]1C
1.0	-1.6	2.6	C[C@@H]1CCCCO[C@@H](CN(C)S(=O)(=O)c2ccccc2)[C@@H](C)CN([C@@H](C)CO)C(=O)c2cc(NC(=O)Nc3ccc4c(c3)OCO4)ccc2O1
-2.6	-4.7	2.1	COCCNC(=O)[C@H]1[C@H](CO)[C@H]2Cn3c(ccc(-c4ccccc4F)c3=O)[C@@H]1N2S(C)(=O)=O
7.7	-1.4	9.1	CC(=O)N(C)C[C@H]1OCc2ccccc2-c2ccccc2C(=O)N([C@H](C)CO)C[C@@H]1C
-1.9	-8.9	7.0	COc1ccc2c3c(n(C)c2c1)[C@@H](CO)N(CC1CC1)CC31CCN(C(=O)CC2CC2)CC1
7.0	-3.9	10.9	CCS(=O)(=O)N1CCCCN2[C@@H](CO)[C@@H](c3ccc(C#CC(C)(C)O)cc3)[C@@H]2C1
-3.8	-3.7	-0.2	CN1C(=O)c2cc(NC(=O)C3CCOCC3)ccc2OC[C@H]2O[C@@H](CC(=O)NCc3ccccc3F)CC[C@@H]21
5.8	2.9	2.9	C/C=C/c1ccc2c(c1)O[C@H](CN(C)C(=O)Cc1cccnc1)[C@H](C)CN([C@@H](C)CO)S2(=O)=O
5.4	4.1	1.2	CC(C)C(=O)Nc1ccc2c(c1)C(=O)N(C)[C@@H]1CC[C@H](CC(=O)O)O[C@@H]1CO2
?	/	/	COc1ccc(NC(=O)Nc2ccc3c(c2)[C@@H]2C[C@@H](CC(=O)N4CCc5ccccc5C4)O[C@H](CO)[C@@H]2O3)cc1
-0.1	2.7	-2.7	CC(C)NC(=O)Nc1ccc2c(c1)CC(=O)N([C@H](C)CO)C[C@H](C)[C@H](CN(C)Cc1ccncc1)O2
4.5	-1.8	6.3	CO[C@H]1CN(C)C(=O)c2ccc(NC(=O)c3cccc(F)c3)cc2OC[C@@H](C)NC[C@@H]1C
0.3	-0.4	0.7	O=C([C@@H]1[C@@H](CO)[C@@H]2Cn3c(cccc3=O)[C@@H]2N1Cc1ccccc1)N1CCCCC1
-8.4	-9.4	1.0	CCC(=O)N1CC2(C1)[C@H](c1ccc(-c3ccc(F)cc3)cc1)[C@H](CO)N2C(=O)CC
-2.7	-7.1	4.4	CS(=O)(=O)N1CC(=O)N2[C@@H](CO)[C@H](c3ccc(C#Cc4ccccc4)cc3)[C@@H]2C1
2.8	5.1	-2.3	CCNC(=O)[C@@H]1[C@@H](CO)[C@@H]2Cn3c(ccc(-c4ccccc4)c3=O)[C@H]1N2Cc1cccnc1
-4.8	-2.9	-1.9	CCCNC(=O)[C@@H]1[C@@H](CO)[C@@H]2Cn3c(ccc(-c4ccc(F)cc4)c3=O)[C@@H]2N1CC
?	/	/	C[C@@H]1CN([C@@H](C)CO)C(=O)c2c(c3ccccc3n2C)-c2ccccc2CO[C@@H]1CN(C)S(=O)(=O)c1ccc(F)cc1
-2.5	-7.4	4.8	CCC(=O)Nc1ccc2c(c1)C(=O)N(C)C[C@H](OC)[C@@H](C)CN(C(=O)COC)[C@H](C)CO2
-9.0	-10.3	1.3	O=C(NC1CCC1)[C@@H]1N[C@@H]2c3ccc(-c4cccc(F)c4)c(=O)n3C[C@@H]2[C@H]1CO
3.8	-1.0	4.8	COc1ccc(S(=O)(=O)Nc2ccc3c(c2)CC(=O)N([C@H](C)CO)C[C@@H](C)[C@@H](CN(C)CC2CC2)O3)cc1
10.9&-5.1	13.9&-15.0	-3.0&9.9	O=C(Nc1ccc2c(c1)OCO2)N1[C@@H]2CNC[C@H]1C2c1ccc(-c2ccncc2)cc1 (stereo partly drawn)
17.8	11.8	6.0	C[C@H](O)C#Cc1ccc([C@@H]2[C@H](CO)N3CCCCN(C(=O)c4ccncc4)C[C@@H]23)cc1
5.4	4.2	1.2	CC(C)NC(=O)N1CC2(C1)[C@H](c1ccccc1)[C@H](CO)N2C(=O)C1CCC1
?	/	/	O=C(C[C@@H]1C[C@H]2c3cc(NC(=O)c4ccc5c(c4)OCO5)ccc3O[C@H]2[C@@H](CO)O1)NC1CCCCC1
-1.4	-2.3	1.0	O=C(Nc1ccccc1F)N[C@@H]1CC[C@H](CC(=O)N2CCCCC2)O[C@H]1CO
-1.1	-8.3	7.2	C[C@@H]1CN([C@@H](C)CO)C(=O)CCCn2cc(nn2)CO[C@H]1CN(C)Cc1ccc(C(=O)Nc2ccccc2N)cc1
-1.7	-1.0	-0.6	CO[C@@H]1CN(C)C(=O)c2ccc(NC(=O)Nc3cc(F)ccc3F)cc2OC[C@H](C)N(C)C[C@H]1C
?	/	/	C/C=C/c1ccc([C@@H]2[C@H](CO)N(CC3CCCC3)C23CN(S(=O)(=O)CC)C3)cc1
3.5	1.5	2.0	CNC[C@@H]1Oc2cc(C#CCC3CCCC3)ccc2S(=O)(=O)N([C@H](C)CO)C[C@H]1C
-0.7	-0.7	-0.1	N#C[C@H]1[C@@H](c2ccccc2)[C@H](CO)N1S(=O)(=O)Cc1ccccc1
9.5	8.6	0.9	CCCNC(=O)N1C[C@H](O)COC[C@H]2O[C@@H](CC(=O)N3CCN(C)CC3)CC[C@@H]21
17.9&7.6	5.6&7.0	12.3&0.5	Cc1ccccc1-c1ccc(C2[C@H]3CNC[C@@H]2N3Cc2ccccn2)cc1 (stereo partly drawn)
0.9	-3.3	4.3	CNC[C@H]1Oc2cc(-c3cccnc3)ccc2S(=O)(=O)N([C@@H](C)CO)C[C@@H]1C

Reprinted at random: 6 records from the list.
DUX4 txn inh	DUX4 txn inh difference	DUX4 txn inh control	Molecule
?	/	/	O=C(C[C@@H]1C[C@H]2c3cc(NC(=O)c4ccc5c(c4)OCO5)ccc3O[C@H]2[C@@H](CO)O1)NC1CCCCC1
-0.7	-0.7	-0.1	N#C[C@H]1[C@@H](c2ccccc2)[C@H](CO)N1S(=O)(=O)Cc1ccccc1
?	/	/	C/C=C/c1ccc([C@@H]2[C@H](CO)N(CC3CCCC3)C23CN(S(=O)(=O)CC)C3)cc1
-1.1	-8.3	7.2	C[C@@H]1CN([C@@H](C)CO)C(=O)CCCn2cc(nn2)CO[C@H]1CN(C)Cc1ccc(C(=O)Nc2ccccc2N)cc1
3.5	1.5	2.0	CNC[C@@H]1Oc2cc(C#CCC3CCCC3)ccc2S(=O)(=O)N([C@H](C)CO)C[C@H]1C
-1.7	-1.0	-0.6	CO[C@@H]1CN(C)C(=O)c2ccc(NC(=O)Nc3cc(F)ccc3F)cc2OC[C@H](C)N(C)C[C@H]1C

(listing goes on)
DUX4 txn inh	DUX4 txn inh difference	DUX4 txn inh control	Molecule
-3.2	-5.1	1.9	Cc1ccc(S(=O)(=O)Nc2ccc3c(c2)C(=O)N([C@@H](C)CO)C[C@@H](C)[C@H](CN(C)S(=O)(=O)c2cccs2)OCCCC[C@@H](C)O3)cc1
0.7	1.1	-0.5	CCC(=O)NC[C@H]1[C@@H](c2ccccc2)[C@H](CO)N1C(=O)C1CCC1
12.8	18.4	-5.6	COc1ccc2c3c(n(C)c2c1)[C@H](CO)N(CC1CCCCC1)CC31CN(C(C)=O)C1
0.3	4.5	-4.2	COc1cccc(S(=O)(=O)Nc2ccc3c(c2)C(=O)N(C)C[C@@H](OC)[C@@H](C)CN(C(=O)Cc2cccnc2)[C@@H](C)CO3)c1
-3.5	3.6	-7.1	O=C(C[C@H]1CC[C@H]2[C@@H](COC[C@H](O)CN2Cc2ccccc2F)O1)NCc1ccccc1F
?	/	/	O=S(=O)(c1ccc(F)cc1)N1CCCCN2[C@H](CO)[C@H](c3ccc(C4=CCCCC4)cc3)[C@H]2C1
-1.1	-3.3	2.3	O=C(NCC1CCCCC1)[C@@H]1[C@@H](CO)[C@@H]2Cn3c(ccc(-c4ccccc4)c3=O)[C@H]1N2
-0.6	1.4	-2.0	C[C@@H]1CN([C@H](C)CO)S(=O)(=O)c2ccc(-c3cccc(C#N)c3)cc2O[C@@H]1CN(C)CC1CC1
-3.2	-3.6	0.3	CC(C)CC#Cc1cnc2c(c1)C(=O)N([C@H](C)CO)C[C@@H](C)[C@H](CN(C)Cc1cccc(F)c1)O2
?	/	/	O=C(C[C@H]1CC[C@@H]2[C@H](COC[C@H](O)CN2S(=O)(=O)c2ccc(F)cc2)O1)N[C@@H]1CCN(Cc2ccccc2)C1
-4.5	-6.9	2.4	CNC[C@@H]1OCCCC[C@H](C)Oc2ccc(NC(=O)Cc3ccccc3)cc2C(=O)N([C@@H](C)CO)C[C@@H]1C
7.7	11.6	-3.9	CCS(=O)(=O)N1CCC2(CC1)CN(C(=O)c1cccc(F)c1)[C@@H](CO)c1c2c2ccc(OC)cc2n1C
-2.1	-1.3	-0.8	CCS(=O)(=O)Nc1ccc2c(c1)C(=O)N(C)[C@H]1CC[C@H](CC(=O)NCCCN3CCOCC3)O[C@@H]1CO2
3.5	4.0	-0.5	O=C(C[C@H]1CC[C@@H]2[C@H](COC[C@@H](O)CN2Cc2nccs2)O1)NCc1ccc(F)cc1
?	/	/	OC[C@@H]1[C@H](c2ccc(C#CC3CCCC3)cc2)[C@H]2CN(CCC(F)(F)F)CCCCN12
10.7	5.6	5.2	CN(C)C(=O)c1cccc(-c2ccccc2[C@@H]2[C@@H](CO)N(C(=O)C3CC3)[C@H]2C#N)c1
8.0	5.6	2.5	CO[C@@H]1CN(C)C(=O)c2cc(NC(C)=O)ccc2OC[C@@H](C)N(Cc2ccncc2)C[C@H]1C
-2.8	1.0	-3.8	C/C=C/c1ccc([C@@H]2[C@@H](C#N)N(c3nc(-c4ccccc4)cs3)[C@@H]2CO)cc1
0.7	-0.1	0.8	O=C(Nc1cccc(F)c1)N1CC(=O)N2[C@H](CO)[C@H](c3ccc(C#CCC4CCCC4)cc3)[C@H]2C1
3.2	2.1	1.2	CCNC[C@H]1[C@@H](c2ccc(C3=CCCC3)cc2)[C@@H](CO)N1C(=O)C1CCCC1
4.4	-1.2	5.6	C[C@@H]1CN([C@H](C)CO)C(=O)CCCn2cc(nn2)CO[C@H]1CN(C)Cc1ccc2c(c1)OCO2
2.5	0.2	2.3	Cc1noc(C)c1S(=O)(=O)N(C)C[C@H]1OCCCC[C@H](C)Oc2ccc(NS(=O)(=O)c3cccs3)cc2C(=O)N([C@H](C)CO)C[C@@H]1C
-0.6	0.6	-1.2	Cc1noc(C)c1C(=O)N(C)C[C@H]1OCc2ccccc2-c2c(n(C)c3ccccc23)C(=O)N([C@@H](C)CO)C[C@@H]1C
-0.6	-0.1	-0.5	CN1[C@H](CO)[C@H]2c3ccccc3N(C(=O)Nc3ccccc3F)C[C@H]21
7.9	2.6	5.3	COCC(=O)N1[C@H](CO)[C@@H]2c3ccccc3N(C(=O)NC(C)C)C[C@@H]21
8.2	4.5	3.8	CO[C@H]1CN(C)C(=O)c2cc(NS(C)(=O)=O)ccc2OC[C@H](C)N(C)C[C@H]1C
-0.3	1.7	-2.1	C[C@@H]1CC(=O)N[C@H](c2ccccc2)C/C=C\C[C@H](c2ccccc2)NC1=O
-1.4	7.6	-9.0	O=C(C[C@@H]1C=C[C@H](NC(=O)Cc2cccnc2)[C@@H](CO)O1)NCc1ccc2c(c1)OCO2
0.7	2.8	-2.1	CC(C)NC(=O)N1C[C@H]2[C@@H](c3ccccc31)[C@H](CO)N2C(=O)c1ccccc1F
2.1	0.1	2.0	CO[C@H]1CN(C)C(=O)c2ccc(NS(=O)(=O)c3ccccc3C)cc2OC[C@@H](C)N(C)C[C@@H]1C
14.1	6.4	7.6	O=C(c1ccncc1)N1CC2(C1)[C@H](c1ccccc1)[C@H](CO)N2C(=O)c1ccncc1
-4.3	-8.7	4.4	NCC[C@H]1CC[C@H](NC(=O)Cc2ccncc2)[C@H](CO)O1
2.0	-2.9	4.9	C[C@@H]1CCCCO[C@@H](CN(C)Cc2ccc(C(=O)O)cc2)[C@H](C)CN([C@H](C)CO)C(=O)c2cc(NC(=O)NC3CCCCC3)ccc2O1
-2.7	-1.2	-1.5	C[C@@H](NC(=O)C[C@H]1CC[C@@H]2[C@H](COc3ccc(NC(=O)C4CCOCC4)cc3C(=O)N2C)O1)c1ccccc1
9.5	5.6	3.9	O=C(c1cccnc1)N1CC2(C1)[C@@H](c1ccccc1)[C@@H](CO)N2C(=O)c1cccnc1
-0.2	-1.9	1.7	O=C([C@@H]1N[C@@H]2c3ccc(C4=CCCC4)c(=O)n3C[C@@H]2[C@H]1CO)N1CCc2ccccc2C1
?	/	/	O=C(C1CCOCC1)N1[C@@H](CO)[C@@H](c2ccccc2)C12CN(Cc1cccc(Cl)c1)C2
-1.9	0.8	-2.7	N#C[C@H]1[C@@H](c2ccccc2)[C@H](CO)N1C(=O)CCN1CCCCC1
?	/	/	COc1cccc(S(=O)(=O)Nc2ccc3c(c2)[C@@H]2C[C@H](CC(=O)N[C@@H](C)c4ccccc4)O[C@@H](CO)[C@@H]2O3)c1
